High-throughput results: PubChem, National Center for Advancing Translational Sciences (NCATS)
Lassa entry inh = qHTS for Inhibitors of binding or entry into cells for Lassa Virus; 300,000 compounds, 1.2% hits; Lassa virus pseudotype entry inhibition, cell reporter; control for the full effect not named in the record; Potency, µM (doses to about 37.9 µM), without a hit: top-dose activity change, negative = inhibition, actives largely listed as inhibitors; AID 540256, 2011; active means well fitted inhibition curve with a large enough effect; inconclusive means small, poorly fitted or top-dose-only effect, or effect the other way; inactive means flat fitted curve, though single readings scatter; tested in HEK293 cells; note: % is set by controls: 0 for no effect and ±100 for the full control effect; nearly all actives have a fitted effect of over 50% in size; luciferase read-out
2A StopGo = High Throughput Screening for Foot and Mouth Disease Virus Antivirals; AID 1159524, 2015; human cells with a luciferase reporter of 2A StopGo recoding; control for the full effect not named in the record; Potency, µM (titrated, usually from 57.9 µM), without a hit: at the top dose signal change, negative = less light; 410,000 compounds, 1.2% hits; active = well fitted falling curve with a large enough effect; inconclusive = small, poorly fitted or top-dose-only effect; inactive = no such curve, though single readings can be large or run the other way; tested in HEK293T cells; note: % is set by controls: 0 for no effect and ±100 for the full control effect; nearly all actives have a fitted effect of over 45% in size; luciferase light after 4 h
Marburg entry inh = qHTS for inhibitors of binding or entry into cells for Marburg Virus | Marburg virus pseudotyped entry inhibition, cell reporter; control for the full effect not named in the record; about a third of the inactives were read at about 46 µM | Potency, µM (top dose mostly 37.8 µM), for the others: at the top dose activity change, negative = inhibition, actives largely listed as inhibitors | 300,000 compounds, 1.8% hits | AID 540276, 2011; active = well fitted inhibition curve with a large enough effect; inconclusive = small, poorly fitted or top-dose-only effect, or effect the other way; inactive = flat fitted curve, though single readings scatter; tested in HEK293 cells; about a fifth of its hits are not listed in these tables; note: % is set by controls: 0 for no effect and ±100 for the full control effect; luciferase read-out
Cruzain Triton = qHTS Assay for Promiscuous and Specific Inhibitors of Cruzain (with detergent) | Potency, µM, without a hit: max response, negative = inhibition, most hits filed as inhibitors | 200,000 compounds, 0.43% hits | Cruzipain (Trypanosoma cruzi), P25779 | purified cruzain, Z-FR-AMC fluorescence, 0.01% Triton;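 note: plate controls were neutral wells for no effect and buffer without enzyme for full effect; nearly all actives have a fitted effect of over 40% in size; top concentration of the series not given in the record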
Target sequence (P25779 123-467 limits assumed): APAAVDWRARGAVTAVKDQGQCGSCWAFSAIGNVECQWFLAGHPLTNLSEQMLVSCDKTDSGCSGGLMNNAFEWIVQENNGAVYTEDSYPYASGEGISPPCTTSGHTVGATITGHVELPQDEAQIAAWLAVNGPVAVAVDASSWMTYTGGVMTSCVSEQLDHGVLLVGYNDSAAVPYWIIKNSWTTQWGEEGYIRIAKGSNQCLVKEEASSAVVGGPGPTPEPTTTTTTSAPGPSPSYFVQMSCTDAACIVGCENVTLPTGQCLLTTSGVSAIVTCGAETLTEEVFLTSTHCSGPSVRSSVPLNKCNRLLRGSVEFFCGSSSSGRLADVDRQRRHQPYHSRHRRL
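Purified cruzain (1.5 nM final) was preincubated with compounds for 15 min at room temperature in 100 mM sodium acetate pH 5.5, 5 mM DTT, 0.01% Triton X-100. Reaction started with 2 uM Z-FR-AMC; AMC fluorescence change over 60 s gave activity.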
SARS PLpro yeast = qHTS of Yeast-based Assay for SARS-CoV PLP; S. cerevisiae expressing SARS-CoV PLpro, growth rescue; control for the full effect not named in the record; AID 485353, 2010; Potency, µM (highest dose often 32.9 µM), for inactives: at the highest dose activity, positive = growth rescue; 330,000 compounds, 0.19% hits; active means well fitted rising curve with a large enough effect; inconclusive means small, poorly fitted or top-dose-only effect; inactive means no such curve, though single readings can be large or run the other way; note: 0% is about no effect; nearly all actives have a fitted effect of over 55% in size; growth read by luminescence after 48 h
NS1 inh = qHTS Assay for Inhibitors of Influenza NS1 Protein Function; AID 2326, 2010; 270,000 compounds, 0.4% hits; S. cerevisiae slowed by influenza A NS1, growth recovery by OD600; Potency, µM (titrated, usually from 46.1 µM), inactives show top-dose activity, positive = more growth; active means well fitted rising curve with a large enough effect; inconclusive means small, poorly fitted or top-dose-only effect; inactive means no such curve, though single readings can be large or run the other way; note: nearly all actives have a fitted effect of over 50% in size
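A cell-based growth assay was used: compounds that relieve NS1-induced slow growth of budding yeast raise OD600. Assay medium was yeast nitrogen base with ammonium sulphate and -URA supplement, pH 6.0, with 2% galactose.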
RE007 growth inh = qHTS Assay for Inhibitors of the HIV-1 protein Vpr. S. pombe RE007 Vpr strain, BacTiter-Glo ATP luminescence, 24 h; control for the full effect not named in the record. Potency, µM (highest dose often 92.2 µM), inactives show at the top dose activity change, negative = less growth. 360,000 compounds, 0.21% hits. AID 651644, 2012; active = well fitted falling curve with a large enough effect; inconclusive = small, poorly fitted or top-dose-only effect; inactive = no such curve, though single readings can be large or run the other way;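 note: % is set by controls: 0 for no effect and ±100 for the full control effect; nearly all actives have a fitted effect of over 50% in size; the assay follows cell death caused by Vpr and the record does not say whether a fall means rescue or toxicity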
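Fission yeast RE007 carrying one integrated HIV-1 vpr copy, seeded at OD 0.01 in PMG+AL medium with 23 nL pinned compound. Grown 24 h at 30 degrees; viability read by BacTiter-Glo luminescence after 5 min.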
Cruzain inh noDet = qHTS Assay for Promiscuous and Specific Inhibitors of Cruzain (without detergent); 200,000 compounds, 2.3% hits; purified cruzain, Z-FR-AMC fluorescence, no detergent; Potency, µM, for inactives: max response, negative = inhibition, most hits filed as inhibitors;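 note: plate controls were enzyme without inhibitor for no effect and buffer without enzyme for full effect; nearly all actives have a fitted effect of over 40% in size; top concentration of the series not given in the record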
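Detergent-free condition (0.00005% Triton X-100) in acetate buffer pH 5.5 with DTT. 1.5 nM enzyme and compound were pre-mixed 15 min, then 2 uM Z-FR-AMC substrate added; reaction progress from fluorescence change between first and third reads (60 s).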
* = called active by the depositor; ? = inconclusive; nt = not tested or not shown; & = joins results of further samples; [ ] = another dose, or the depositor's remark. Unless noted, calls come from the whole dose curve; as a rule, active = well fitted curve in the direction sought with a large enough effect; inconclusive = small, poorly fitted or top-dose-only effect, or another doubt; inactive = no such curve, though single readings can be large; an effect the other way counts as inactive or inconclusive. Potency is the fitted concentration of half-maximal effect.

Values run as follows: Cruzain inh noDet | Marburg entry inh | 2A StopGo | SARS PLpro yeast | Cruzain Triton | NS1 inh | RE007 growth inh | Lassa entry inh
CC(=O)c1cc2c(cc1NS(=O)(=O)c1ccc3c(c1)OCCO3)OCO2
  -4% | -9% | nt | 0% | -1.7% | -12% | -5% | -16%
Cc1nccn1CC(O)COC1CCCCC1 (stereo not drawn)
  -11% | 2%[46.1 µM] | -24% | 1% | -3.7% | 0% | -1% | -5%
COc1ccc2c(c1)c(=O)c(C(=O)c1ccc(Cl)cc1)cn2CC(=O)Nc1ccc2c(c1)OCO2
  3% | -2%[46.1 µM] | 0% | nt | -0.5% | nt | nt | -12%[46.1 µM]
CCCNC(=O)c1ccc2c(c1)S(=O)(=O)c1ccccc1C2=O
  nt | 8%[46.1 µM] | 17% | 0% | nt | -2% | 11% | -10%[46.1 µM]
CC(C)n1c(-c2ccco2)csc1=Nc1cccnc1
  -9% | -24% | 25µM* | -11% | 1.8% | -123% | -28% | -13%
CCCCNC(=O)C1CCC(CNS(=O)(=O)c2ccc(Cl)cc2)CC1 (stereo not drawn)
  -4% | nt | -1% | nt | 3.4% | nt | nt | 25%[46.1 µM]
O=C(NCC1CCCO1)C1CCN(S(=O)(=O)c2cc(Cl)ccc2Cl)CC1 (stereo not drawn)
  nt | 4%[46.1 µM] | -9% | 1% | nt | 4% | 2% | nt
COc1ccc(-n2c(=O)[nH]cc(C(=O)Nc3ccc4c(c3)OCO4)c2=O)cc1OC
  nt | 10% | -11% | 1% | nt | -9% | -1% | 14%
CCCn1c(SCC(=O)N(C)C2CCS(=O)(=O)C2)nc2sc3c(c2c1=O)CCC3 (stereo not drawn)
  nt | 5% | -11% | 1% | nt | nt | -10% | 0%
Cc1cc2nc(CCl)cc(=O)n2[nH]1
  nt | 17%[46.1 µM] | 0% | -6% | nt | nt | 18% | 1%
N#CC(=C=[N-])c1nc2ccccc2nc1-[n+]1cccc(NC(=O)c2cccs2)c1
  nt | nt | -11% | 0% | nt | -2% | -4% | nt
CC(=O)C(/C=N/c1cc(-c2ccc(C)cc2)nn1-c1ccccc1)=C(\C)O
  3% | ? | 27% | 15% | -7.8% | -6% | -4% | ?
Cc1c(C)n(C)c2ccc(C(=O)Nc3cccc4ccccc34)cc12
  ? | -5% | -2% | ? | -0.6% | 15% | -20% | ?
Cc1ccc(N2C(=O)CC(N3CCN(C)CC3)C2=O)cc1 (stereo not drawn)
  -2% | nt | nt | -25% | 3.3% | -3% | nt | nt
CCN1CCN(CC(=O)Nc2cccc(C)c2C)C(=O)C1=O
  -2% | nt | 0% | 2% | 5.4% | 8% | -9% | nt
CC1CN(C(=O)/C=C/c2ccc(SC(F)F)cc2)CC(C)O1 (stereo not drawn)
  nt | 1%[46.1 µM] | -1% | -3% | nt | -3% | -4% | -10%
COc1cccc(C2C(C#N)=C(N)Oc3cc(C)n(Cc4ccccn4)c(=O)c32)c1OC (stereo not drawn)
  9% | 9%&9% | -22% | 4% | -2.1% | ? | 20% | -4%
COc1ccc(OCCCC(=O)NNC(=O)c2ccncc2)cc1
  nt | -18% | -11% | nt | nt | nt | 5% | 0%
CCC(C)[C@H](NC(=O)[C@@H]1CSC2c3ccccc3C(=O)N21)C(=O)NCC1CCCO1 (stereo partly drawn)
  nt | nt | -16% | 2% | nt | 1% | -12% | nt
O=C(Cc1ccc(Cl)cc1)NCCc1csc2nc(-c3ccccc3F)nn12
  4% | nt | -12% | nt | -3.4% | nt | nt | 5%[46.1 µM]
CCOC(=O)C1(CCCc2ccccc2)CCN(Cc2cnc(C)s2)CC1
  nt | ? | ? | -1% | nt | 2% | -1% | ?
O=C(c1ccc(Cl)cc1)N1CCC(C(=O)N2CCN(c3ncccn3)CC2)CC1
  nt | 11% | -12% | -11% | nt | nt | 4% | -11%
CCC(C)N(C)C1CCN(C(=S)Nc2cccc(SC)c2)CC1 (stereo not drawn)
  nt | ? | 4% | 5% | nt | nt | -7% | -28%
CC1(C)CC(N2CCCC2)=CC(=[N+]2CCCCCC2)C1
  nt | 1.5µM* | ? | 2% | nt | nt | -4% | ?
c1ccc(Cc2nnc3n2CCCCC3)cc1
  -2% | 5% | -9% | -2% | 3.5% | 5% | 0% | 12%
COc1ccc(NC(=O)CSc2nc(-c3ccccc3)nc3cc(=O)[nH]n23)cc1
  -16% | nt | -17% | nt | 3.8% | nt | nt | 12%[46.1 µM]
CC12CCCCC1=[N+]([O-])CN2O (stereo not drawn)
  -9% | 0% | -20% | 7% | 3.2% | -8% | -15% | -11%
COc1ccccc1NC(=O)CSc1nc(N)c(C#N)cc1C#N
  nt | -3% | -19% | 0% | nt | nt | 9% | 1%[46.1 µM]
CCc1cc2c(=O)n(C(C)C(=O)OC3CCCCC3)cnc2s1 (stereo not drawn)
  -14% | ? | -1% | -2% | -6.2% | -9% | 18% | ?
Brc1csc2ncccc12
  nt | -8% | -13% | 0% | nt | 3% | -4% | 4%
CC(C)c1[nH]nc2c1C(c1cccnc1)C(C#N)=C(N)O2 (stereo not drawn)
  -1% | -3% | -8% | 23% | 1.1% | 14% | -3% | 41%[14.3 µM]
CC(C)n1c(N2CCN(C(=O)N3CCCCC3)CC2)nc2ccccc21
  -1% | ? | ? | -4% | -2.1% | -18% | -5% | 1%
CN(C)c1cccc(C(=O)Nc2cccc(F)c2)c1
  -6% | ? | 43%[activator] | -20% | 0.1% | -40% | ? | ?
COc1ccc(-c2nnn(CC(=O)OC3CCCCC3)n2)cc1OC
  -17% | 6% | 14% | -2% | -5.4% | -12% | -15% | 4%
OC(CNCc1ccccc1)c1ccc(Cl)cc1 (stereo not drawn)
  nt | ? | -2% | nt | nt | nt | -4% | 19%[46.1 µM]
O=C(CSc1nc2ccccc2[nH]1)NCCCn1ccnc1
  6% | 18% | 12% | 0% | 1.2% | -1% | 7% | -8%
CCCCN=C1CC(C)(C)CC(=O)/C1=C(/O)CCCN1C(=O)c2ccccc2C1=O
  nt | 22%[46.1 µM] | -1% | -2% | nt | nt | 0% | 0%
Cc1onc(-c2ccccc2)c1C(=O)OCC(=O)Nc1ccccc1
  nt | -15% | 4% | 4% | nt | nt | 2% | -9%
CN1CCN(Cc2ccc(Sc3ccc(Cl)cc3)c([N+](=O)[O-])c2)CC1
  nt | ? | -26% | 0% | nt | nt | 9% | -8%
CCc1c(O)nc(SCC(=O)Nc2ccccc2)n(-c2ccccc2)c1=O
  -2% | -13% | 9% | -1% | -1.3% | ? | 8% | -5%
COc1ccc(-c2nn(-c3ccccc3)cc2C2NC(=O)NC(C)=C2C(=O)OC(C)C)cc1Cl (stereo not drawn)
  -13% | 17%[46.1 µM] | -16% | nt | -9.6% | nt | nt | ?
COc1ccc(C2C(C(=O)Nc3cccc(C)n3)CCC(=O)N2c2ccc(OC)cc2)cc1 (stereo not drawn)
  ? | ? | ? | ? | 4.3% | 0% | 12% | ?
CCOc1[nH]n(-c2ccc(Cl)cc2)c(=O)c1C=Nc1ccc(Cl)cc1
  ? | 2% | -11% | -3% | -3.3% | 5% | -18% | -7%
COc1cccc(CN2CCNC(=O)C2CC(=O)O)c1OC (stereo not drawn)
  20% | nt | 3% | 28% | -0.1% | 1% | -7% | nt
CCOc1ccc(OCCC(=O)OCC(=O)Nc2cc(C)nn2-c2ccccc2)cc1
  nt | 29% | -20% | -8% | nt | nt | -9% | 19%
CC(=O)c1cccc(NC(=O)C(C)OC(=O)c2cccc(-n3cnnn3)c2)c1 (stereo not drawn)
  nt | -21% | -25% | 3% | nt | nt | 2% | 5%
O=C(O)Cn1nnnc1SCC(=O)Nc1ccccc1F
  nt | -2% | 3% | 1% | nt | 3% | 1% | 12%
Cc1ccc(C)c(-c2csc(Nc3ncccn3)n2)c1
  nt | nt | 9% | 1% | nt | 21% | -9% | nt
CSCCC(NC(=O)c1ccco1)C(=O)NCc1ccc2c(c1)OCO2 (stereo not drawn)
  nt | 23% | -10% | -1% | nt | nt | -11% | -8%
COc1cccc(N2CC(NC(=O)c3cccc(OC)c3OC)CC2=O)c1 (stereo not drawn)
  -15% | nt | -14% | nt | -1.4% | nt | nt | 3%[46.1 µM]

Other records follow.
Values run as follows: Cruzain inh noDet | Marburg entry inh | 2A StopGo | SARS PLpro yeast | Cruzain Triton | NS1 inh | RE007 growth inh | Lassa entry inh
CC1CCCCN1Cc1c(O)ccc2c(=O)c(-c3nc4ccccc4s3)coc12 (stereo not drawn)
  nt | nt | ? | 0% | nt | 3% | 3% | nt
CCNC1CCS(=O)(=O)C1 (stereo not drawn)
  nt | -1%[14.2 µM] | -10% | -1% | nt | -1% | 22% | -11%
CCC1(c2ccccc2)NC(=O)N(CC(=O)Nc2ccccc2N2CCCCC2)C1=O (stereo not drawn)
  nt | ? | -13% | 1% | nt | -43% | -2% | -26%
CCN(CCn1cccn1)Cc1c(C(=O)N2CCCCCCC2)nc2ccc(Cl)cn12
  nt | nt | -14% | 0% | nt | -4% | -15% | nt
O=C(Cc1n[nH]c(=O)c2ccccc12)OCC(=O)c1ccc2c(c1)OCCO2
  -30% | ? | 1% | 5% | -3.5% | 1% | 2% | ?

One compound at a time (already shown):
CCNC1CCS(=O)(=O)C1 (stereo not drawn) in the list: Cruzain inh noDet: nt; Marburg entry inh: -1%[14.2 µM]; 2A StopGo: -10%; SARS PLpro yeast: -1%; Cruzain Triton: nt; NS1 inh: -1%; RE007 growth inh: 22%; Lassa entry inh: -11%
CCC1(c2ccccc2)NC(=O)N(CC(=O)Nc2ccccc2N2CCCCC2)C1=O (stereo not drawn) in the list: Cruzain inh noDet: nt; Marburg entry inh: ?; 2A StopGo: -13%; SARS PLpro yeast: 1%; Cruzain Triton: nt; NS1 inh: -43%; RE007 growth inh: -2%; Lassa entry inh: -26%

This is a random part of the collection. About 4.6% of those tested had a hit in this group.
